# Vaccinia Venus = inhibitors of vaccinia virus (Venus reporter); Vaccinia virus Venus reporter expression, fluorescence; Potency, µM (highest dose often 36.5 µM), inactives show top-dose activity change, negative = inhibition, hits mostly inhibitors; 330,000 compounds, 0.46% hits; active means well fitted inhibition curve with a large enough effect; inconclusive means small, poorly fitted or top-dose-only effect; inactive means no such curve, though single readings can be large or run the other way; tested in A549 cells; also: nearly all actives have a fitted effect of over 30% in size; inactives centre near -10
# Vaccinia mCherry = inhibitors of vaccinia virus infection (mCherry reporter signal); Vaccinia virus mCherry reporter infection, fluorescence; about a quarter of the inactives have no number; Potency, µM (highest dose often 36.5 µM), inactives show at the top dose activity change, negative = inhibition, hits mostly inhibitors; 310,000 compounds, 0.63% hits; active = well fitted inhibition curve with a large enough effect; inconclusive = small, poorly fitted or top-dose-only effect; inactive = no such curve, though single readings can be large or run the other way; tested in A549 cells; also: nearly all actives have a fitted effect of over 35% in size; inactives centre near -10
# * = called active by the depositor; i = inactive; ? = inconclusive; . = not tested or not shown; & = joins results of further samples; [ ] = remark or other dose. % is scaled to controls: 0 for no effect and ±100 for the full control effect; potency is read from the fitted curve at half-maximal effect.
1	Cc1ccc(S(=O)(=O)N2[C@@H](CO)CO[C@H]2CC(=O)c2cccc3ccccc23)cc1
2	COc1cc(CCC(=O)N2CC(C)OC(C)C2)cc(OC)c1OC (configuration not stated)
3	CC1=C(C(=O)Nc2ccccc2)C(c2ccco2)NC(=O)N1 (configuration not stated)
4	CCn1nnc(NC(=S)NC(=O)c2ccc(-c3cccc(Cl)c3)o2)n1
5	CCOC(=O)c1ccc(NC(=O)c2ccc(OC(C)C)c(OC)c2)cc1
6	CCCCCC(=O)N1CCN(S(=O)(=O)c2ccc3c(c2)OCCO3)CC1
7	COc1ccc(CCNc2nc(SCc3cccc(F)c3)nc3ccccc23)cc1OC
8	COCCCn1cc(CN(C)C2CN(Cc3cn(CCCOC)nn3)S(=O)(=O)C2)nn1 (configuration not stated)

assay / compound	1	2	3	4	5	6	7	8
Vaccinia Venus	-7%	-12%	3%	-10%	1%	-16%	-10%	-3%
Vaccinia mCherry	i	-10%	-10%	-12%	-9%	-1%	-8%	12%

9	NC(=O)c1ccc(NCCc2ccco2)cc1
10	COc1ccc(CCNC(=O)C(=O)NCC2OCCN2S(=O)(=O)c2ccc(C)cc2)cc1OC (configuration not stated)
11	O=C(C1CCC1)N1CCN(S(=O)(=O)c2ccc(Br)cc2Cl)CC1
12	CC1=NN(C(=O)c2ccccc2C)C(O)(c2ccc(Cl)cc2)C1 (configuration not stated)
13	Cc1ccc(NC(=O)CN2C(=O)COc3ccc(S(=O)(=O)N4CCCCCC4)cc32)c(C)c1
14	CCOc1cc(CNC(=O)CCCn2c(=O)c3cccn3c3cccnc32)cc(OCC)c1OCC
15	CCCC(=O)Nc1ccc(C(=O)NNC(=O)COc2ccc(Br)c(C)c2)cc1
16	COc1ccc(-c2nnc(Nc3ccc(CC(N)=O)cc3)c3ccccc23)cc1

assay / compound	9	10	11	12	13	14	15	16
Vaccinia Venus	-13%	-1%	-27%	-3%	-12%	-4%	-7%	-25%
Vaccinia mCherry	10%	-9%	-13%	?	-15%	-5%	-14%	-12%

17	Cc1ccccc1Cc1c(C)nc2nc(SCC(=O)NCc3ccco3)nn2c1C
18	O=C(CCNS(=O)(=O)c1ccccc1)Nc1ccc(Cl)cc1C(=O)c1ccccc1
19	COc1ccc2[nH]c3c(c2c1)CCN1C(=O)C(CC(=O)NCc2cccc(C(F)(F)F)c2)C[C@H](C(=O)N2CCCCC2)[C@@]31C (some centres not stated)
20	COC(=O)COc1ccc(S(=O)(=O)N2CCN(c3ccc(F)cc3)CC2)cc1
21	CCCCC(=O)Nc1cccc(NC(=S)NC(=O)C(C)C)c1
22	O=C(NCc1cccnc1)c1cc(C2CCCCN2S(=O)(=O)c2cccc3cccnc23)on1 (configuration not stated)
23	CCCCOC(=O)NC1(C)CCS(=O)(=O)C1 (configuration not stated)
24	Cc1ccc(-c2cc(-c3ccc(F)cc3)nc(N)c2C#N)o1

assay / compound	17	18	19	20	21	22	23	24
Vaccinia Venus	?	-14%	?	-16%	-10%	-6%	-6%	-17%
Vaccinia mCherry	?	-22%	?	-19%	i	38%[activator]	-11%	.

25	Nc1ccc(C(=O)Nc2ccco2)cc1
26	Cc1cccc(OCC(=O)NCCCNC(=O)c2ccc(C)nc2)c1
27	COc1ccc(Oc2ccccc2/C=N/O)cc1
28	CC(C1CC1)N(Cc1ccccc1)C(=S)Nc1cccc(C(F)(F)F)c1 (configuration not stated)
29	CCN(CC)C(=O)Cn1ncc2c([nH]c3ccccc32)c1=O
30	CC1C(=O)N2CCCc3cc(NC(=O)C(=O)NCCc4ccccc4)cc1c32 (configuration not stated)
31	COc1ccc(C2c3cc(OC)c(OC)cc3CC(=O)N2c2cccc(C#N)c2)cc1 (configuration not stated)
32	CCN(CC)CCCNc1ncnc2scc(-c3ccc(F)cc3)c12

assay / compound	25	26	27	28	29	30	31	32
Vaccinia Venus	-10%	-16%	?	-21%	-3%	-21%	-12%	-18%
Vaccinia mCherry	-8%	11%	.	?	-4%	-23%	-12%	-3%

33	Cc1cccc(N(CC(=O)NCCSc2ccc(Cl)cc2)S(C)(=O)=O)c1C
34	C/C(Cn1nnc2ccccc21)=N\NC(=O)c1ccc(Br)cc1
35	CC(C)C[C@H](NC(=O)c1[nH]cnc1C(=O)N[C@@H](C)c1ccccc1)C(=O)OCc1ccccc1
36	CC(C)[C@H](NC(=O)C1CCCC1)c1nc2ccccc2[nH]1
37	Cc1ccc(N(C(=O)c2ccco2)C(C(=O)NC2CCCC2)c2ccco2)c(C)c1 (configuration not stated)
38	Cc1cccc(C)c1NC(=O)COC(=O)c1ccc(N2CCCC2)c([N+](=O)[O-])c1
39	CN(CC(=O)Nc1ccccc1Br)C(=O)c1cccc(S(=O)(=O)NCc2ccccc2)c1
40	CCc1ccc(OC(C)C(=O)Nc2c(C(=O)c3ccccc3)oc3ccccc23)cc1 (configuration not stated)

assay / compound	33	34	35	36	37	38	39	40
Vaccinia Venus	-21%	-21%	?	-7%	-5%	-15%	-19%	1%
Vaccinia mCherry	-25%	-7%	-7%	7%	i	-16%	-25%	-6%

41	O=C(Nc1ccc(F)cc1Cl)c1ccc2c(=O)n3c(nc2c1)CCC3
42	O=C(CSc1nc2ccccc2s1)Nc1ccc(Cl)c(C(=O)O)c1
43	O=C(NCc1ccc2c(c1)OCO2)C1CCCN1C(=O)Nc1ccc(Cl)cc1 (configuration not stated)
44	COc1ccc(S(=O)(=O)Nc2cccc(F)c2C)cc1C(=O)N1CCOCC1
45	CC(=O)Oc1ccc(Cn2c(C)c(C(=O)NCc3cccc(C(F)(F)F)c3)sc2=O)cc1
46	O=C(COc1ccc(Cl)cc1)N1CCN(c2cccc(C(F)(F)F)c2)CC1
47	CCOC(=O)/C(C#N)=C\c1c(OCC)n(CC)c2ccccc12
48	COc1ccc(CN=CC2=C(O)CNC2=O)cc1OC

assay / compound	41	42	43	44	45	46	47	48
Vaccinia Venus	-8%	-5%	-15%	-9%	-16%	-10%	-20%	-10%
Vaccinia mCherry	-10%	-6%	2%	-3%	-4%	-3%	-8%	.

49	O=C(CSCc1ccc(F)cc1)NCc1ccc(F)cc1
50	CC(=O)N/C(=C/c1ccc(OS(=O)(=O)c2ccc(C)cc2)cc1)C(=O)Nc1ccc(C(=O)O)cc1
51	CC(=O)N1CCc2cc(C(=O)CN3CCC(C)CC3)ccc21
52	O=C(N/N=C/c1ccco1)c1cc(-c2ccc(Cl)cc2)n[nH]1
53	COCc1cc(N2CCOCC2)nc(-c2ccccc2)n1
54	Cc1ccc(CCNC(=O)C2CCN(C(=O)N(C)C)CC2)cc1
55	O=C1OC(Cc2ccccc2)(c2ccccc2)c2ccccc21 (configuration not stated)
56	Cc1[nH]nc2c1[C@@H](c1ccccc1[N+](=O)[O-])C(C#N)=C(N)O2

assay / compound	49	50	51	52	53	54	55	56
Vaccinia Venus	-15%&0%	-6%	-13%	-4%[7.34 µM]	-8%	-2%	-11%	-21%
Vaccinia mCherry	-5%&-8%	i	i	-6%[7.34 µM]	i	-4%	-4%	i

57	COc1ccc(CCNc2oc(Cc3ccccc3)nc2C#N)cc1OC
58	OC[C@@H]1CN(Cc2cccs2)C[C@H](n2cnc3c(NC4CCCC4)ncnc32)O1
59	CCS(=O)(=O)c1ccc2oc(SCC(=O)NC(C)C3CC4CCC3C4)nc2c1 (configuration not stated)
60	CCCSc1nnc2[nH]c(=O)cc(N)n12
61	CC(=O)N1CCN(Cc2cc(=O)oc3ccccc23)CC1
62	CCOc1cc(/C=C2/NC(=O)N(Cc3ccccc3F)C2=O)ccc1O
63	CS(=O)(=O)N(CC(=O)Nc1c(F)cccc1F)c1cccc([N+](=O)[O-])c1
64	CCOC(=O)c1[nH]c(C)c(CCC(=O)Nc2ccc(C(C)=O)cc2)c1C

assay / compound	57	58	59	60	61	62	63	64
Vaccinia Venus	-33%	-6%	?	-21%	-2%	-28%	-18%	-4%
Vaccinia mCherry	-12%	8%	.	.	i	.	.	-3%

65	O=C(CN1C(=O)CC(c2ccco2)Sc2ccccc21)Nc1cccc(C(F)(F)F)c1 (configuration not stated)
66	Cc1cccc([C@@H]2[C@@H]3C(=O)N(Cc4ccccc4)C(=O)[C@@H]3[C@]3(CC(C)C)C(=O)N(c4cccc(F)c4)C(=O)N23)c1
67	CN(C)C1(CNC(=O)Nc2ccc(Cl)c(Cl)c2)CCCCC1
68	CCc1noc(C)c1C(=O)OCC(=O)NCc1ccc(Cl)cc1
69	CCN(CCCNC(=O)c1cc(Nc2ccc(OC)cc2)nc2ccccc12)c1cccc(C)c1
70	Cc1ccc(C(=O)N/C(=C/c2ccco2)C(=O)NCCCn2ccnc2)cc1
71	COc1cc(OC)cc(C(=O)Nc2ccc3c(c2)N(C2CCCC2)C(=O)c2ccccc2S3)c1
72	Cc1ccc(N/C=C/C(=O)c2ccc(C)cc2)cc1

assay / compound	65	66	67	68	69	70	71	72
Vaccinia Venus	-13%	-21%	-30%	-14%	1%	4%	-9%	-5%
Vaccinia mCherry	-11%	-29%	?	i	-9%	-9%	-18%	-10%

73	COCC(C)n1c(SCC(=O)c2cc(C)n(C)c2C)nc2ccccc2c1=O (configuration not stated)
74	CCOC(=O)c1ccc(N=c2sc(C(=O)OC)cc(=O)n2-c2ccc(C(=O)OCC)cc2)cc1
75	CCOC(=O)N1CCN(C(=O)c2cc(OC)cc(OC)c2)CC1
76	O=C(CCN1CCN(CCO)CC1)Nc1ccc(Br)cc1
77	COC(=O)c1c(-c2ccccc2OC)sc2ccc(OC)cc12
78	CC(C)CC1(C(=O)NCCN2CCOCC2)C=CCN1C(=O)c1ccccc1 (configuration not stated)
79	CCc1ccc(S(=O)(=O)Nc2c(C)n(C)n(-c3ccccc3)c2=O)cc1
80	Cc1ccc(C)c2sc(N)nc12

assay / compound	73	74	75	76	77	78	79	80
Vaccinia Venus	-19%	-12%	9%	4%	-7%	-4%	-4%	-20%
Vaccinia mCherry	-25%	i	-12%	4%	-26%	i	i	?

81	CN(C)CCCNCCCNC(=O)c1ccccn1
82	CCOC(=O)c1c(C)[nH]c(C)c1S(=O)(=O)NCC(=O)Nc1ccc(C)cc1C
83	CCCSc1nc2sc3c(c2c(=O)n1CC)CC(C)(C)OC3
84	COc1ccc(OC)c2c1sc(=NC(=O)C1COc3ccccc3O1)n2C (configuration not stated)
85	CCn1c(O)c(N=NC(=O)CNC(=O)Cc2ccccc2)c2ccccc21
86	CC/C(=N\NC(=O)c1ccc(N2CCCC2=O)cc1)c1ccccc1

assay / compound	81	82	83	84	85	86
Vaccinia Venus	-13%	-3%	-8%	-13%	-30%	-6%
Vaccinia mCherry	-12%	-13%	i	-8%	-29%	-5%

# Some of the entries above in a different format.
# Order of values: Vaccinia Venus	Vaccinia mCherry
69	CCN(CCCNC(=O)c1cc(Nc2ccc(OC)cc2)nc2ccccc12)c1cccc(C)c1
    1%	-9%
70	Cc1ccc(C(=O)N/C(=C/c2ccco2)C(=O)NCCCn2ccnc2)cc1
    4%	-9%
71	COc1cc(OC)cc(C(=O)Nc2ccc3c(c2)N(C2CCCC2)C(=O)c2ccccc2S3)c1
    -9%	-18%
72	Cc1ccc(N/C=C/C(=O)c2ccc(C)cc2)cc1
    -5%	-10%
73	COCC(C)n1c(SCC(=O)c2cc(C)n(C)c2C)nc2ccccc2c1=O (configuration not stated)
    -19%	-25%
74	CCOC(=O)c1ccc(N=c2sc(C(=O)OC)cc(=O)n2-c2ccc(C(=O)OCC)cc2)cc1
    -12%	i
75	CCOC(=O)N1CCN(C(=O)c2cc(OC)cc(OC)c2)CC1
    9%	-12%
76	O=C(CCN1CCN(CCO)CC1)Nc1ccc(Br)cc1
    4%	4%
77	COC(=O)c1c(-c2ccccc2OC)sc2ccc(OC)cc12
    -7%	-26%
78	CC(C)CC1(C(=O)NCCN2CCOCC2)C=CCN1C(=O)c1ccccc1 (configuration not stated)
    -4%	i
79	CCc1ccc(S(=O)(=O)Nc2c(C)n(C)n(-c3ccccc3)c2=O)cc1
    -4%	i
80	Cc1ccc(C)c2sc(N)nc12
    -20%	?
81	CN(C)CCCNCCCNC(=O)c1ccccn1
    -13%	-12%
82	CCOC(=O)c1c(C)[nH]c(C)c1S(=O)(=O)NCC(=O)Nc1ccc(C)cc1C
    -3%	-13%
83	CCCSc1nc2sc3c(c2c(=O)n1CC)CC(C)(C)OC3
    -8%	i
84	COc1ccc(OC)c2c1sc(=NC(=O)C1COc3ccccc3O1)n2C (configuration not stated)
    -13%	-8%
85	CCn1c(O)c(N=NC(=O)CNC(=O)Cc2ccccc2)c2ccccc21
    -30%	-29%
86	CC/C(=N\NC(=O)c1ccc(N2CCCC2=O)cc1)c1ccccc1
    -6%	-5%
